Compound activity: PubChem, several laboratories
VCAM-1 down: inhibitors of TNFa-induced VCAM-1 surface display, cell-based, plate reader, pooled HUVEC, TNFa stimulus (AID 454) | inhibition, % at 5 µM | 0.2% of 10,000 active | HUVEC TNFa-induced VCAM-1 surface immunofluorescence, plate reader; numbers were filed only for top-ranked candidate wells;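 active = compound among top-ranked inhibitors of TNF-induced VCAM-1 adhesion protein staining, with the hit upheld by image or statistical review; inactive = the rest, including hits rejected on review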;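 note: 0% = TNFa with vehicle and 100% = cells without TNFa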
VCAM-1 down imaging: inhibitors of TNFa-induced VCAM-1 surface display, imaging, high-content imaging, pooled HUVEC, TNFa stimulus (AID 456) | HUVEC TNFa-induced VCAM-1 surface expression, immunofluorescence imaging; numbers were filed only for top-ranked candidate wells | inhibition, % at 5 µM, or IC50 in µM where a hit was titrated | 0.2% of 10,000 active;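 active = top tenth filtered wells with inhibition above zero that passed visual or statistical confirmation; inactive = the rest, including hits rejected on review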;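 note: 0% = stimulated vehicle wells and 100% = unstimulated cells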
FPR binder: human FPR ligands by binding competition, primary screen, cell-based, FPRL1 counter-screen, flow cytometry; FPR-expressing cells, fluorescent ligand binding; inhibition, %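 (tested at 6.7 µM)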; 0.74% of 24,000 active; AID 440, 2006;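 note: 0% = buffer wells and 100% = receptor blocker peptide wells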
Target sequence (P21462 whole entry, looked up): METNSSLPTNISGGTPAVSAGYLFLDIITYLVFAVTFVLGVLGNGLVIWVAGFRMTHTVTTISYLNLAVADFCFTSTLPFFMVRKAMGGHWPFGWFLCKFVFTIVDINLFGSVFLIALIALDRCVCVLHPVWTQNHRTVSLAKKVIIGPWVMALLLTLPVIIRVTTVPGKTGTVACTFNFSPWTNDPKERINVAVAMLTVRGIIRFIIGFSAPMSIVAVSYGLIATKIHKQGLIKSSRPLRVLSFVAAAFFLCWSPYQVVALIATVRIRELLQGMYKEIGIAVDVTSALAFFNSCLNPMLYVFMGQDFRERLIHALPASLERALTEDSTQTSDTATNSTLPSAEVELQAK
VCAM-1 up imaging: enhancers of VCAM-1 display on endothelial cells, imaging, high-content imaging, pooled HUVEC, TNFa stimulus (AID 457); 0.2% of 10,000 active; Pooled HUVEC, TNFa-induced VCAM-1 immunofluorescence imaging; hits of this screen are not shown here; calls only;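 active = a top-ranked rise in VCAM-1 staining upheld on image or statistical review; inactive = the rest, including candidates rejected on review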;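 note: compounds tested at 5 µM in the well; cells exposed to compound for 24 hours before fixing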
FPRL1 ligand: human FPRL1 ligands by binding competition, primary screen, cell-based, FPR counter-screen, flow cytometry; FPRL1-expressing cells, fluorescent ligand binding inhibition; inhibition, %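 (tested at 6.7 µM)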; N-formyl peptide receptor 2 (Homo sapiens), P25090; 0.3% of 24,000 active;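 note: 0% = buffer alone and 100% = receptor blocker peptide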
Target sequence (P25090 whole entry, looked up): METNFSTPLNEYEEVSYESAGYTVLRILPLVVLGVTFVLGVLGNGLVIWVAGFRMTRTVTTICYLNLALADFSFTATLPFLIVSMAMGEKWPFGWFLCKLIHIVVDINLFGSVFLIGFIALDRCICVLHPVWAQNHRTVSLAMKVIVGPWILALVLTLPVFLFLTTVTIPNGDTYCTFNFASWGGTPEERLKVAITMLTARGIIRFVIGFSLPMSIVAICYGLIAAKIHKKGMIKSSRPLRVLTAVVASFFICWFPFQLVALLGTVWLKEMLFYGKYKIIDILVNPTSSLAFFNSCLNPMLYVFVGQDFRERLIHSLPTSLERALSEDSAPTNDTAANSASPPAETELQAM
* hit, by the source's call; i = inactive; . = not tested or not shown.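 Rule for the calls, unless noted: active = mean above 30%; inconclusive = self-fluorescent; inactive = the rest.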

structure	FPR binder	FPRL1 ligand	VCAM-1 up imaging	VCAM-1 down	VCAM-1 down imaging
O=C(CSc1nnc(-c2ccco2)n1-c1ccccc1)N1CCN(C(=O)c2ccco2)CC1	2	4	i	i	i
COc1ccc(C2C(C(=O)N3CCCCC3)c3ccccc3C(=O)N2C)cc1 (stereo unspecified)	-11	-2	.	.	.
Cc1noc(C)c1S(=O)(=O)Nc1ccc(C(=O)O)cc1	-1	3	.	.	.
CCN1C(=O)c2ccccc2Sc2ccc(C(=O)NCCN3CCOCC3)cc21	-10	3	.	.	.
CCCc1cc(C(=O)N2CCN(C(c3ccccc3)c3ccccc3)CC2)no1	4	11	.	.	.
O=C(CCN1C(=O)COc2ccccc21)NCCN1CCN(c2cccc(Cl)c2)CC1	-3	-5	i	i	i
O=c1c2cc(N3CCOCC3)ccc2[nH]c(=S)n1Cc1ccco1	0	-2	.	.	.
CC1CC(C)CN(CCCNC(=O)C2CCN(S(=O)(=O)N3CCCCC3)CC2)C1 (stereo unspecified)	-5	4	.	.	.
O=C(NCc1ccco1)c1csc2c1CCCCC2	4	7	.	.	.
CC1CCCC(NC(=O)c2ccc(CNc3c(N4CCCC4)c(=O)c3=O)cc2)C1C (stereo unspecified)	-1	2	.	.	.
Cc1ccc(-n2ncc(C(=O)N3CCc4ccccc4C3)c2NC(=O)c2ccco2)cc1C	5	2	i	i	i
O=C1C2CCCN2C(c2ccccc2)N1c1cccc(Cl)c1 (stereo unspecified)	-1	-1	.	.	.
O=C(CN1CCN(CCOCCO)CC1)N1c2ccccc2Sc2ccc(Cl)cc21	-5	-3	.	.	.
CCc1ccc(S(=O)(=O)c2n[nH]n3c2nc(=O)c2ccccc23)cc1	3	-11	.	.	.
Cc1cccc2cc(CN(Cc3nnnn3C3CCCC3)C3CCCCC3)c(=O)[nH]c12	-3	2	i	i	i
CNC(=O)c1nnc(Cc2ccc(F)cc2)o1	6	-3	.	.	.
CCCn1cc(S(=O)(=O)CC(=O)Nc2ccc(OCC)cc2)c2ccccc21	-1	-5	.	.	.
CCOC(=O)N1CCC(N2C(=O)c3ccccc3C2Nc2ccc3c(C)cc(=O)oc3c2)CC1 (stereo unspecified)	13	-4	i	i	i
CC(=O)NCCc1cc2cc(C)c(C)cc2[nH]c1=O	4	-2	.	.	.
CCn1c(=O)c2cc(C(=O)NCc3cccs3)sc2c2ccccc21	8	4	.	.	.
COC(=O)c1c(NC(=O)CSc2nnc(-c3cccnc3)n2Cc2ccco2)sc(C)c1C	-4	-5	i	i	i
O=C(c1cc2c(s1)-c1ccccc1OC2)N1CCN(c2ccccn2)CC1	5	-8	.	.	.
O=C(CCS(=O)(=O)c1cccc2nonc12)NCCc1ccccc1	6	5	.	.	.
CCOc1ccccc1C1CC(c2ccccc2)Nc2nc(N)nn21 (stereo unspecified)	5	0	.	.	.
Cc1ccc(-c2nc(CSCC(=O)NCc3cccnc3)c(C)o2)cc1	2	5	.	.	.
Cc1c(C(=O)O)oc2ccc(S(=O)(=O)NCCC3=CCCCC3)cc12	0	0	i	i	i
Cc1c(C(=O)NCc2cccnc2)oc2ccc(S(=O)(=O)N3CCCCC3)cc12	3	-1	i	i	i
Cc1cnc(C(=O)Nc2ccccc2-n2cccc2)cn1	7	3	i	i	i
COCCNC(=O)c1cc2c(-c3ccc(Cl)cc3)nn(C)c2s1	7	0	.	.	.
CCOC(=O)c1c(C)c(C(=O)Nc2ccc3c(c2)OCO3)c(C)n1C	-1	-5	.	.	.

An excerpt from above, limited to FPR binder:
canonical_smiles	FPR binder
CCCn1cc(S(=O)(=O)CC(=O)Nc2ccc(OCC)cc2)c2ccccc21	-1
CCOC(=O)N1CCC(N2C(=O)c3ccccc3C2Nc2ccc3c(C)cc(=O)oc3c2)CC1 (stereo unspecified)	13
CC(=O)NCCc1cc2cc(C)c(C)cc2[nH]c1=O	4

Continued:
structure	FPR binder	FPRL1 ligand	VCAM-1 up imaging	VCAM-1 down	VCAM-1 down imaging
COc1ccc(CC(=O)NCc2cccs2)cc1	-2	5	i	i	i
O=C(c1ccc(NS(=O)(=O)c2cccs2)cc1)N1CCCCC1	-2	4	i	i	i
CCN1CCCC1CNC(=O)Cn1cccc1C(=O)c1ccccc1C (stereo unspecified)	0	-6	.	.	.
O=C(COc1ccc(Cl)cc1)NCc1nnc(SCC(=O)N2CCCc3ccccc32)o1	1	-7	.	.	.
CCc1nc(C)c(-c2ccccc2)c(=O)[nH]1	0	7	i	i	i
Cc1nc2ccccc2nc1OCC(=O)Nc1cc(C(F)(F)F)ccc1N1CCOCC1	-7	-4	i	i	i
Cn1c(=O)oc2cc(S(=O)(=O)NCCN3CCCCCC3)ccc21	-5	0	.	.	.
O=C(Nc1ccc2oc(-c3ccccc3Cl)nc2c1)c1cncc(Br)c1	2	-1	.	.	.
Cc1ccc(CNC(=O)CCS(=O)(=O)c2ccc(Br)s2)o1	1	-5	.	.	.
CCOc1ccc(C2C(C(=O)c3cccs3)=C(O)C(=O)N2CCCn2ccnc2)cc1 (stereo unspecified)	30*	8	.	.	.
COc1cc(N2C(=O)NC3CC2(C)Oc2ccccc23)cc(OC)c1OC (stereo unspecified)	0	-9	.	.	.
CCOC(=O)N1CCN(S(=O)(=O)c2cc(Cl)c(OC)cc2Cl)CC1	-6	-2	i	i	i
CCN1CCN(c2cc3c(cc2F)c(=O)c(C(=O)O)cn3C2CC2)CC1	2	-3	i	i	i
CCOC(=O)N1CCN(CC(=O)c2ccc3c(c2)CCN3C(C)=O)CC1	-3	-6	.	.	.
CCC(Sc1ccc2nnc(-c3ccc(OC)c(OC)c3)n2n1)C(=O)O (stereo unspecified)	-3	3	.	.	.
CCC1Oc2ccccc2N(CC(=O)NCCCN2CCN(Cc3ccccc3)CC2)C1=O (stereo unspecified)	-4	-1	.	.	.
CN(C)CCC(c1ccc(Br)cc1)c1ccccn1 (stereo unspecified)	-4	1	i	i	i
COc1ccc(S(=O)(=O)N2CCSC2c2ccccc2)cc1 (stereo unspecified)	-13	-10	i	i	i
COC(=O)c1sc2ccccc2c1C(=O)OC	-2	-2	.	.	.
COC(=O)c1c(NC(=O)C2CC=CCC2C(=O)O)sc(C(N)=O)c1C (stereo unspecified)	-8	2	i	i	i
CCN(CC)CCn1c(=S)[nH]c2cc(Cl)ccc2c1=O	-2	2	.	.	.
CCOC(=O)N1CCN(C(=O)Cn2ncc3c2-c2ccccc2OC3)CC1	-7	-1	.	.	.
COc1cccc(NC(=O)C2C3C=CC4(O3)C2C(=O)N(C2CC2)C4C(=O)NC2CCCCC2C)c1 (stereo unspecified)	2	2	.	.	.
Cc1nc2sc(C(c3ccco3)N3CCc4ccccc4C3)c(O)n2n1 (stereo unspecified)	0	11	.	.	.
NC1=NC(c2ccc(Cl)cc2)n2c(nc3ccccc32)N1 (stereo unspecified)	3	-2	i	i	i
COc1ccc(-n2nnc3c(SCc4ccccc4)ncnc32)cc1	5	-4	.	.	.
COc1ccccc1NC(=O)CSc1nc2ccccc2c(=O)n1CCNC(C)=O	3	0	.	.	.
CCCCN(C)C(=O)CCCCn1c(=O)[nH]c2cc(OCC)c(OCC)cc2c1=O	2	2	.	.	.
O=C(OCc1nnc(-c2ccccc2)o1)c1ccc2ccccc2n1	-6	-3	i	i	i
O=C(Cn1cnc2c(nnn2Cc2ccccc2F)c1=O)NCC1CCCO1 (stereo unspecified)	-13	-5	.	.	.

Record cards, as listed above. Values in the order: FPR binder, FPRL1 ligand, VCAM-1 up imaging, VCAM-1 down, VCAM-1 down imaging
Listed for `O=C(CN1CCN(CCOCCO)CC1)N1c2ccccc2Sc2ccc(Cl)cc21` → -5, -3, ., ., .
Listed for `O=c1c2cc(N3CCOCC3)ccc2[nH]c(=S)n1Cc1ccco1` → 0, -2, ., ., .

(more compounds)
structure	FPR binder	FPRL1 ligand	VCAM-1 up imaging	VCAM-1 down	VCAM-1 down imaging
CCN(Cc1ccccc1)C(=O)CSc1nc(C)cc(C)c1C#N	6	-2	.	.	.
COc1cc(C)c(C#N)c(OC)n1	-7	-4	.	.	.
O=C(CC(C(=O)N1CCc2ccccc21)n1ccnc1)N1CCc2ccccc2C1 (stereo unspecified)	6	4	.	.	.
CCc1ccc(OCc2ccc(C(=O)NCc3ccccn3)o2)cc1	-1	6	.	.	.
CC(=O)c1c(C)[nH]c(C(=O)NCCN2CCC(C)CC2)c1C	-4	-8	.	.	.
COc1cc(C(Nc2ccccn2)c2ccc3ccc(C)nc3c2O)cc(OC)c1O (stereo unspecified)	3	11	.	.	.
CCN(CC)CCN1C(=O)C(=O)/C(=C(/O)c2ccc(C)cc2)C1c1cccnc1 (stereo unspecified)	4	1	.	.	.
CC1CCCCC1NC(=O)Cn1ncc2ccccc21 (stereo unspecified)	1	-6	i	i	i
O=C(CSc1nnc(COc2ccc(Cl)cc2)o1)N1CCN(c2ccccc2)CC1	-3	0	i	i	i
COc1cccc(NC(=O)c2cn(C)c(=O)c3cc(OC)c(OC)cc23)c1	-6	-2	.	.	.
N#Cc1c(SCC(=O)N2CCOCC2)nsc1SCC(=O)N1CCOCC1	-2	1	i	i	i
COc1ccc2c(c1)c1nc(SCC(C)C)n(CCO)c(=O)c1n2C	-7	2	.	.	.
c1ccc(CCn2nnnc2C(c2cccs2)N2CCOCC2)cc1 (stereo unspecified)	20	-2	i	i	i
CC1CCN(C(=O)c2ccc(NC(=O)C3CCCO3)cc2)CC1 (stereo unspecified)	1	2	.	.	.
Cc1nc2ccc(NC(=O)N3CCSCC3)cc2s1	-2	4	i	i	i
CCCCc1nc(NCCN2CCOCC2)c(C#N)c2c1COC(C)(C)C2	-9	-5	i	i	i
CCn1nc(C)c(NC(=O)c2cc(Br)ccc2Cl)c1C	2	-2	i	i	i
CCOC(=O)N1CCC(NC(=O)CS(=O)(=O)Cc2nc(-c3cccc(OC)c3)oc2C)CC1	1	5	.	.	.
CCOC(=O)CSc1nc(N)c(C#N)c(-c2ccc(OCC)cc2)c1C#N	-4	2	.	.	.
Cc1cc(C)cc(-n2cc3c(=O)n(C)c(=O)n(C)c3c2)c1	32*	24	.	.	.
Cc1ccc(CNC(=O)CCS(=O)(=O)c2cccc3nonc23)cc1	0	-4	.	.	.
O=C(O)c1ccc(-c2ccc(O)c(F)c2)cc1	-3	9	i	i	i
Cc1c(C(=O)Nc2ccc3c(c2)OCO3)sc2nc(-c3ccccc3)cn12	6	11	.	.	.
CCOc1ccc(NC(=O)COc2nsnc2N2CCCCC2)cc1	-1	-3	.	.	.
COc1ccc2c(c1OC)C(=O)N1c3cccc(Cl)c3C(=O)OC21 (stereo unspecified)	3	-16	.	.	.
CCOC(=O)N1CCN(C(=O)c2ccc(CNS(=O)(=O)c3ccc(OC)cc3)cc2)CC1	0	10	.	.	.
O=C(NCc1ccc(Cl)cc1)c1noc2c1CCCC2	0	-2	.	.	.
Cc1ccc(NC(=O)COS(=O)c2ccc(C)cc2)cc1 (stereo unspecified)	-6	-7	i	i	i
COc1ccc(C2C(C(N)=O)=C(C)Nc3nc(-c4ccccc4)nn32)cc1OC (stereo unspecified)	0	1	.	.	.
COc1cccc2cc(C(=O)N3CCc4ccccc43)c(=O)oc12	0	2	i	i	i

structure	FPR binder	FPRL1 ligand	VCAM-1 up imaging	VCAM-1 down	VCAM-1 down imaging
CCN(CC)C(=O)c1c[nH]c2ccc(S(=O)(=O)Nc3cc(C)cc(C)c3)cc2c1=O	-3	-12	.	.	.
O=S(=O)(NCc1cccs1)c1cccc2cccnc12	0	6	.	.	.
Cc1nn(C(C)C(=O)O)c(=O)c2c1sc1ccccc12 (stereo unspecified)	-3	-2	.	.	.
COc1cc2c(=O)n(Cc3ccccc3)c(=O)n(CC(=O)NCC3CCCO3)c2cc1OC (stereo unspecified)	0	-2	.	.	.
O=C(CSc1nc2ccsc2c(=O)n1Cc1ccccc1)NCc1ccco1	5	8	.	.	.
CCCc1cc(C(=O)Nc2cc(OC)c(Cl)cc2OC)no1	-2	4	.	.	.

Only part of the results is shown. The share of hits here may be higher or lower than overall.
